Compound activity as filed in PubChem BioAssay.
CSC inhib – cancer stem cell inhibition | cancer stem cell-like cells viability, luminescence | inhibition, % at 7.5 µM | hit rate 1.1% among 300,000 | AID 2717;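 active means mean at 75% or more and at least half the replicates too; inconclusive means mean and replicates disagree; tested in HMLE shEcad cells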;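 further: 0% = median of negative and 100% = median of positive control wells; the first replicate is given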
PABP polyA inh – PABP-poly(A) binding inhibition; inhibition, % at 35 µM; hit rate 1% among 290,000; PABP-poly(A) RNA binding, fluorescence polarization;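 active means 50% or more with normal probe brightness, or confirmed in later tests; inconclusive means above 50% with abnormal brightness, or retests that disagree; inactive means below 50% or failed in later tests; about a fifth of its hits are not listed in these tables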;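 further: calls also rest on retests at 20 µM and on dose response follow-up; controls were probe without protein and protein plus probe with vehicle; some compounds called inactive have numbers as strong as hits; many hits fall short of the cut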
Target sequence (P11940 whole entry, looked up): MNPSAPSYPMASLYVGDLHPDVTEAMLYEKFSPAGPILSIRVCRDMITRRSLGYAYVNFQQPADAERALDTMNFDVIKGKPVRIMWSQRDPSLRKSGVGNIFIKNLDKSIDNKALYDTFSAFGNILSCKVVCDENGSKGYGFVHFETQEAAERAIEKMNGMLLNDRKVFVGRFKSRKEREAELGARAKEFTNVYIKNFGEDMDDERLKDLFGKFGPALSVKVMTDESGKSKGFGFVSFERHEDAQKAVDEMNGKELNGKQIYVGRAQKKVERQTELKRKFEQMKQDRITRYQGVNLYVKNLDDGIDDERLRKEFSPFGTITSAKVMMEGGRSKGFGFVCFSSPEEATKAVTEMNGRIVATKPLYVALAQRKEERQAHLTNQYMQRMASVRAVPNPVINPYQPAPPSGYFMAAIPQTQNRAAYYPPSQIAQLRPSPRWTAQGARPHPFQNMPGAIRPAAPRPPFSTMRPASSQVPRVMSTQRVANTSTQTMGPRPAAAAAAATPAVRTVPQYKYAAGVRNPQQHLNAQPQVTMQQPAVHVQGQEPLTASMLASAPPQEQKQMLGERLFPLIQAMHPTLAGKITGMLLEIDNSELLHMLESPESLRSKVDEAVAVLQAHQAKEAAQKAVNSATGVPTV
eIF4H inh – inhibitors of RNA binding by human eIF4H | eIF4H fluorescence polarization binding assay | AID 2012 | inhibition, % at 35 µM | hit rate 0.94% among 290,000;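 active means 50% or more with normal probe brightness, or confirmed in later tests; inconclusive means above 50% with abnormal brightness, or retests that disagree; inactive means below 50% or failed in later tests; about a fifth of its hits are not listed in these tables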;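 further: calls also rest on retests at 20 µM and on dose response follow-up; 0% = protein and probe with vehicle and 100% = probe without protein; strong numbers were not always called active; many hits fall short of the cut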
Yeast UUG start – modulators of start codon recognition fidelity in yeast. S. cerevisiae UUG-firefly luciferase reporter, luminescence/redox ratio. activity score, % at 18.7 µM. hit rate 0.13% among 350,000;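 active means replicate mean at a twofold rise or more, about +100% in these data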;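 further: firefly luciferase made from a UUG start codon reports start codon fidelity; reporter light over untreated wells divided by growth signal over untreated wells; some hits fall short of that in this replicate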
Rce1 inhib – inhibitors of yeast Ras-converting enzyme; Q03530; yeast membranes, quenched prenylated peptide cleavage fluorescence; calls only; hit rate 0.27% among 290,000;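 active means fall in fluorescence gain of 50% or more versus controls, with final raw signal at or below 3038400; inconclusive means same 50% fall but final raw signal above 3038400; inactive means fall in fluorescence gain under 50%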;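 further: plate controls were neutral control wells for no effect and wells lacking membranes for full effect; tested at 10 µM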
Env fusion inh – inhibitors of HIV Env-mediated cell fusion; hit rate 1.1% among 360,000; AID 651610; HeLa-JRFL Env/CEM21 cell fusion, luciferase; inhibition, % at 12.3 µM;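 active means mean replicate inhibition score of at least 50 and every replicate individually at or above 50; inconclusive means only one of the two criteria met; inactive means mean below 50 and not all replicates reaching 50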;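 further: 0% = plate neutral controls and 100% = maraviroc near 300 nM; one replicate is shown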
MT1-MMP act inh – inhibitors of human MT1-MMP activation. HT1080 RFP-PRO-GFP cells, GFP/RFP ratio fluorescence, overnight; percent of plate control window, DMSO zero. GFP/RFP ratio change, % at 20 µM. hit rate 0.061% among 360,000;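 active means GFP/RFP ratio change of at least 30% with cell ATP level not reduced by more than half and red fluorescence within 50% of control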; further: strong numbers were not always called active
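Read-out: GFP/RFP fluorescence ratio; Test system: RFP-PRO-GFP reporter HT1080 cells; Compound dosing: single-point 20 µM compound, 1% DMSO; Times: overnight compound exposure at 37 °C.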
eIF4H inh retest – further read-out of eIF4H inh, marked with its call; inhibition, %; compound at 20 µM; confirmation average;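 mean of two retest wells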
PABP polyA inh retest – recorded beside PABP polyA inh, whose call it bears; inhibition, %; compound at 20 µM; confirmation repeats;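 mean of two retest wells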
MT1-MMP act inh RFP – recorded beside MT1-MMP act inh, whose call it bears; RFP signal change, %; measured here: RFP expression control read;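 0 = vehicle wells; hits needed this value within 50% of zero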
Starred values were filed as active, the others as inactive; i = inactive; ? = inconclusive; / = not tested or not shown. Not all compounds are listed; count on the stated rates, not on these rows.

SMILES	CSC inhib	PABP polyA inh	eIF4H inh	Yeast UUG start	Rce1 inhib	Env fusion inh	MT1-MMP act inh	MT1-MMP act inh RFP	others
COCCN(C)Cc1nc(C(c2ccccc2)c2ccccc2)no1	-3	-6	-7	-11	i	-13	-3	1
COC(=O)Cc1ccc(NC(=S)NCc2ccccc2OC)cc1	/	-5	4	/	i	3	1	1
COc1ccccc1C(=O)NCCC(=O)NCCc1ccccc1	-8	9	-2	-4	i	1	2	6
CC1(c2ccc(Cl)cc2)NC(=O)N(CC(=O)N2CCN(C(=O)c3cccs3)CC2)C1=O (stereo not given)	/	/	/	-2	/	2	-1	1
CC(C)(C)c1ccc(-c2cc(-c3ccccc3O)[nH]n2)cc1	43	-6	-10	-47	i	-349	5	-6
O=C(COC(=O)Cc1ccsc1)Nc1ccccc1	/	-5	4	/	i	-2	3	9
CCOc1ccc(C2C(C#N)=C(N)SC(N)=C2C#N)cc1OCC	-4	122	122*	-12	i	7	-185	7	eIF4H inh retest=69*;PABP polyA inh retest=35
COc1ccccc1CCNC(=O)Nc1cccc([N+](=O)[O-])c1	9	7	4	/	i	1	5	-1
C/C(=C\C#N)n1nc(C)cc1N	-3	2	-4	-8	i	/	5	3
CCCCn1cnc2c(SCc3cccc(F)c3)nc(N)nc21	/	/	/	-20	/	1	8	-3
Cc1ccccc1N1CCN(C2CCCN(C(=O)c3cc[n+]([O-])cc3)C2)CC1 (stereo not given)	-4	1	3	-15	i	4	-2	0
CCOc1ccc(NC(=O)CC2C(=O)N(C)C(=S)N2Cc2ccc3c(c2)OCO3)cc1 (stereo not given)	-4	0	0	2	i	/	1	2
COc1ccc(C(CC(=O)NCc2ccccc2)C(C)C)cc1 (stereo not given)	-15	-2	7	-9	i	8	-1	-1
CCOC(=O)N1CCC(NC(=O)c2cc(COc3ccc(F)cc3Cl)on2)CC1	1	-16	-11	-22	i	5	2	-3
OC(CN1CCOCC1)CN(c1ccccc1)c1ccccc1 (stereo not given)	4	-3	-4	-7	i	/	0	10
COc1ccccc1CNC(=O)[C@H](C)N1C(=O)N2CCc3c([nH]c4ccccc34)[C@@]2(C)C1=O	-3	6	-2	9	i	/	-2	-22
COC(=O)CS(=O)(=O)c1nnc([C@H](Cc2ccccc2)NC(=O)OC(C)(C)C)o1	91*	-7	-12	/	i	/	-1	-3
CCOC(=O)c1ccc(NC(=O)CSc2nccn2C)cc1	-12	-6	-3	-15	i	/	-2	-1
O=C(COC(=O)c1cc[n+]([O-])cc1)Nc1ccc(Cl)cc1[N+](=O)[O-]	-3	5	-3	-17	i	4	1	1
CCOC(=O)C1CCCN(C(=O)c2ccc(-c3ccccc3)cc2)CC1 (stereo not given)	/	/	/	1	/	17	2	1
COc1cccc(-c2csc(N3CCN(C(=S)Nc4ccccc4Cl)CC3)n2)c1	14	-2	-8	-21	i	/	-3	-4
CCN(CC(=O)Nc1c(F)cccc1F)C(=O)c1ccc(Cl)c(S(=O)(=O)N2CCCCC2)c1	-27	3	6	-3	i	5	3	1
NC(=O)COC(=O)c1sc2ccccc2c1Cl	-6	?	3	-15	i	-41	-1	2
Cc1ccc(NC(=S)NNC(=S)Nc2cccc(C(F)(F)F)c2)cc1	48	3	1	-10	i	-10	5	-2

Brought forward from above: two entries; new compounds follow.
SMILES	CSC inhib	PABP polyA inh	eIF4H inh	Yeast UUG start	Rce1 inhib	Env fusion inh	MT1-MMP act inh	MT1-MMP act inh RFP	others
NC(=O)COC(=O)c1sc2ccccc2c1Cl	-6	?	3	-15	i	-41	-1	2
Cc1ccc(NC(=S)NNC(=S)Nc2cccc(C(F)(F)F)c2)cc1	48	3	1	-10	i	-10	5	-2
CCOC(=O)C1CCCN(C(=O)c2ccc3c(c2)N(Cc2ccccc2)C(=O)c2ccccc2S3=O)C1 (stereo not given)	2	-13	-7	/	i	-20	0	-1
CCOC(=O)c1ccccc1NC(=O)C1CC(=O)N(C2CCCC2)C1 (stereo not given)	/	/	/	-8	/	-1	-3	1
Cc1cc(/C=C2/SC(=O)N(CC(=O)N3CCCC3)C2=O)ccc1N1CCOCC1	-3	-1	92	/	i	-28	-12	-4	eIF4H inh retest=6;PABP polyA inh retest=2
O=C(CCc1ccccc1)n1nc(-c2ccco2)nc1SCc1ccccc1	/	7	-13	-21	/	-16	1	6
CCCNC(=O)c1cc2c(c(-c3cccc(-c4ccc(F)cc4)c3)n1)[C@H](CCO)N(S(=O)C(C)(C)C)C2 (stereo not given in full)	/	/	/	-3	/	-3	1	-4
CCOc1ccc(S(=O)(=O)N2CCCCC2)c2ccccc12	8	-9	-3	-14	i	29	-8	-10
CC(CCN1CCN=C1Nc1ccccc1)c1ccccc1 (stereo not given)	-6	-1	-1	-10	i	5	-2	0
CC1CN(S(=O)(=O)c2cccc(C(F)(F)F)c2)CN1C(=O)N1CCOCC1 (stereo not given)	1	11	5	-14	/	-1	1	-1
Cc1ccc(-c2csc3nc[nH]c(=S)c23)cc1C	-1	-8	3	-39	i	/	-26	-31
COCCC(=O)N1CCC(Oc2ccc(C(=O)NCCc3ccccn3)cc2)CC1	-1	-7	-8	-8	i	0	1	3
COc1cccc(C(=O)Nc2cc(C)on2)c1	/	/	/	-27	/	-25	-1	-1
CN(C)CCCNC(=S)N1CCn2c(nc3ccccc32)C1	/	6	-4	-16	i	4	2	6
OC1CCCN(Cc2ccc3c(c2)Cc2ccccc2-3)C1 (stereo not given)	52	6	1	-5	i	12	16	0
CCCCCCCCC(=O)NNC(=O)c1c(O)c2ccccc2n(CCC)c1=O	-6	-12	7	/	i	2	1	4
O=C1C(=O)c2c(C(=O)c3ccccc3)coc2-c2ccccc21	37	14	4	-35	i	/	-1	-1
COCc1[nH]nc2c1C(c1cccc(OC)c1)C(C#N)=C(N)O2 (stereo not given)	10	-6	-1	-9	i	-42	-6	-1
CCOC(=O)C1=C(C)NC(=S)NC1C (stereo not given)	8	-6	0	-10	i	-18	0	7
CN(C)c1nc(C(F)(F)F)cc(=O)[nH]1	31	-4	-4	/	i	10	-2	1
Cc1ccc(C2(CC(=O)O)CCOC(C)(C)C2)cc1 (stereo not given)	-11	6	4	3	i	6	0	2
C=CC[C@@H](Cc1ccc(F)cc1)C(=O)OC[C@@H]1CCCN1C(=O)[C@H](CC=C)CC(=O)N[C@H](CO)Cc1ccccc1	/	/	/	6	/	-25	3	-11
Fc1ccc(NCc2nnc(SCc3nnc(-c4ccccc4)o3)n2Cc2ccccc2)cc1	4	35	58*	-16	i	-76	8	-12	eIF4H inh retest=91*;PABP polyA inh retest=33
Cc1cc(C)c(S(=O)(=O)c2ccccc2)c(OC(=O)c2cc(F)c(F)cc2Cl)n1	-14	-3	-2	-12	i	/	-17	-7
COc1ccc(S(=O)(=O)N(CC(=O)Nc2ccc(S(=O)(=O)N3CCOCC3)cc2)c2ccccc2)cc1	-3	-8	-11	-8	i	1	0	-6
CCCC[C@@H]1CCCO[C@@](C(=O)NCc2cc(C)n(C)n2)(C(F)(F)F)C1	-5	/	/	-21	i	-9	-2	2

The final six compounds of the section above lead into the next:
SMILES	CSC inhib	PABP polyA inh	eIF4H inh	Yeast UUG start	Rce1 inhib	Env fusion inh	MT1-MMP act inh	MT1-MMP act inh RFP	others
Cc1ccc(C2(CC(=O)O)CCOC(C)(C)C2)cc1 (stereo not given)	-11	6	4	3	i	6	0	2
C=CC[C@@H](Cc1ccc(F)cc1)C(=O)OC[C@@H]1CCCN1C(=O)[C@H](CC=C)CC(=O)N[C@H](CO)Cc1ccccc1	/	/	/	6	/	-25	3	-11
Fc1ccc(NCc2nnc(SCc3nnc(-c4ccccc4)o3)n2Cc2ccccc2)cc1	4	35	58*	-16	i	-76	8	-12	eIF4H inh retest=91*;PABP polyA inh retest=33
Cc1cc(C)c(S(=O)(=O)c2ccccc2)c(OC(=O)c2cc(F)c(F)cc2Cl)n1	-14	-3	-2	-12	i	/	-17	-7
COc1ccc(S(=O)(=O)N(CC(=O)Nc2ccc(S(=O)(=O)N3CCOCC3)cc2)c2ccccc2)cc1	-3	-8	-11	-8	i	1	0	-6
CCCC[C@@H]1CCCO[C@@](C(=O)NCc2cc(C)n(C)n2)(C(F)(F)F)C1	-5	/	/	-21	i	-9	-2	2
CC(C)C[C@H](NC(=O)c1cc2cc(Cl)ccc2n1C)C(=O)N1CCC[C@H]1C(=O)O	-9	8	4	-9	i	/	4	-1
O=C(c1ccccc1)c1nc2ccccc2n(CCCn2c(=O)c(C(=O)c3ccccc3)nc3ccccc32)c1=O	2	-11	-6	-8	i	-15	5	1
Cn1c(SCC(=O)NC2CC2)nnc1-c1ccccc1	3	7	6	-3	i	/	-1	3
COc1ccc(S(=O)(=O)N[C@H](C(=O)N2CC[C@@]3(O)CCCC[C@H]3C2)c2ccccc2)cc1	-11	-7	-4	-3	i	/	-3	2
CC(C)=CCOc1ccc([C@@H]2COc3c(ccc4c3C=CC(C)(C)O4)C2)c(O)c1	102*	/	/	-3	/	/	-5	-33
COc1ccc(-c2c(C)nn3c(N4CCN(Cc5ccccc5)CC4)cc(C)nc23)cc1OC	26	6	5	-7	i	26	-2	-17
C#CCOCCOCCOCCNc1nc(N2CCN(C(=O)Cn3cc(CCCCN)nn3)CC2)nc(N2CCN(C(=O)[C@H]([C@@H](C)CC)n3cc(CCCN=C(N)N)nn3)CC2)n1	-9	/	/	-9	/	22	6	6
CCC1(c2ccccc2)NC(=O)N(CC(=O)Nc2ccc3c(c2)OCO3)C1=O (stereo not given)	/	-1	5	-3	i	/	-4	-1
O=C1C(C=Nc2ccccc2)=C(O)c2ccccc21	4	3	-7	-59	i	-212	-1	-1
CN1CCN(c2ccccc2NC(=O)c2ccc(-c3ccc(Br)cc3)o2)CC1	61	17	-5	-8	i	/	-6	-16
COc1ccccc1N1CCN(C2CC(=O)N(c3ccc(F)cc3)C2=O)CC1 (stereo not given)	2	-7	-3	-9	i	-15	1	7
O=C(c1ccc(F)cc1)N1CCC(C(=O)N2CCN(c3ncccn3)CC2)CC1	3	/	/	-13	/	-56	2	1
CC(=O)c1cccc(NC(=O)c2ccc(-n3cncn3)c3ccoc23)c1	/	/	/	0	/	21	0	-1
Nc1nc(-c2ccc3c(c2)OCCO3)c(CC(=O)O)s1	-6	-18	-4	0	i	3	-21	4
COc1ccccc1NC(=O)COc1ccc(-c2nn(C)c(=O)c3ccccc23)cc1	/	12	-2	1	i	16	2	-13
COc1cc(OC)nc(Oc2cccc(C(F)(F)F)c2)n1	-8	-1	-4	-14	i	3	0	1
Cc1ccc(NC(=O)CN2C(=O)C3CC=C(Cl)CC3C2=O)cc1 (stereo not given)	5	5	2	-15	i	6	-2	3
Cn1ncc(Cl)c1C(=O)N/N=C/c1cccc(OC2CSC2)c1	7	0	14	/	i	/	-1	-1

Gathered by group: those above containing a cyano group.
SMILES	CSC inhib	PABP polyA inh	eIF4H inh	Yeast UUG start	Rce1 inhib	Env fusion inh	MT1-MMP act inh	MT1-MMP act inh RFP	others
CCOc1ccc(C2C(C#N)=C(N)SC(N)=C2C#N)cc1OCC	-4	122	122*	-12	i	7	-185	7	eIF4H inh retest=69*;PABP polyA inh retest=35
C/C(=C\C#N)n1nc(C)cc1N	-3	2	-4	-8	i	/	5	3
COCc1[nH]nc2c1C(c1cccc(OC)c1)C(C#N)=C(N)O2 (stereo not given)	10	-6	-1	-9	i	-42	-6	-1
